Assay outcomes as filed in PubChem.
AID923 = qHTS Assay for Allosteric/Competitive Inhibitors of Caspase-1: Spectroscopic Profiling in AFC Spectral Region | compound fluorescence, AFC spectral region (405/520 nm); almost no hit is shown here | Potency, µM (titrated, usually from 57.5 µM), for inactives: at the highest dose fluorescence increase, actives largely listed as activators | hit rate 1.1% among 75,000 | AID 923, 2007; active = well fitted activation curve with a large enough effect; inconclusive = small, poorly fitted or top-dose-only effect;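 also: potency is read from the fitted curve at half-maximal effect; 0% is about no effect; scaled to a free AFC standard on each plate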
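Compound autofluorescence profiled at 405 nm ex/520 nm em during kinetic caspase 1 run (50 nM enzyme, 5 uM Ac-WEHD-AFC, HEPES pH 7.5, 10 mM DTT). Titration up to 57 uM; baseline from regression intercept, normalized to AFC standard curve.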
A647 autofl = compound autofluorescence in A647 spectral region | Compound fluorescence, A647 channel (570/671 nm), Tris buffer | max dye-equivalent concentration, M | 59,000 tested, under 10 active; active means above 1 µM dye equivalent; inconclusive means 0.1 to 1 µM; inactive means 0.1 µM or less;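 also: values scaled relative to a standard on each plate; highest value over a series up to 38 µM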
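Compounds pinned into 100 mM Tris pH 8.0, 15 min at room temperature, then read with 570 nm excitation/671 nm emission filters. Fluorescence normalized to an on-plate six-point Alexa 647 standard curve, giving dye-equivalent concentration per compound concentration.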
A488 autofl = compound autofluorescence in A488 spectral region | compound autofluorescence, A488 spectral region, dye equivalency; stronger effect = higher value | max dye equivalency, M | hit rate 0.1% among 59,000 | AID 591; active = above 10 nM dye equivalent; inconclusive = 1 to 10 nM; inactive = 1 nM or less; about half of its hits are not listed in these tables;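 also: highest value over a series up to 38 µM; compound alone in buffer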
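Autofluorescence read at ex 480/em 540 nm after 15 min RT in 100 mM Tris pH 8.0; compound signal normalized to A488 standard series on each plate, reported as dye-equivalent concentration at each test concentration.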
Resorufin autofl = resorufin region autofluorescence. Compound fluorescence, resorufin region 547/598 nm, buffer; stronger effect = higher value. max dye-equivalent concentration, M. AID 588. hit rate 0.04% among 59,000; active = above 10 nM dye equivalent; inconclusive = 1 to 10 nM; inactive = 1 nM or less; a few of its hits are not listed in these tables; also: highest value over a series up to 38 µM
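Read-out: intrinsic compound fluorescence at ex 547/em 598 nm after 15 min at RT in pH 8.0 Tris (100 mM). Values expressed as resorufin-equivalent concentration from per-plate standard series.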
TSHR ag = TSH receptor (human) agonism; P16473; hit rate 0.48% among 73,000; Potency, µM (top dose mostly 57.1 µM), without a hit: at the highest dose activation, actives largely listed as activators; HEK293-CNG-TSHR cells (CNG channel as cAMP sensor), membrane potential dye, cAMP; active = well fitted activation curve of enough size with the parental cells flat; inconclusive = any curve in the parental cells; inactive = parental cells flat and receptor cells flat or falling; also: potency is read from the fitted curve at half-maximal effect; % of control where 0% means no effect; weak receptor curves with flat parental cells got no call and are not listed
Target sequence (P16473 whole entry, looked up): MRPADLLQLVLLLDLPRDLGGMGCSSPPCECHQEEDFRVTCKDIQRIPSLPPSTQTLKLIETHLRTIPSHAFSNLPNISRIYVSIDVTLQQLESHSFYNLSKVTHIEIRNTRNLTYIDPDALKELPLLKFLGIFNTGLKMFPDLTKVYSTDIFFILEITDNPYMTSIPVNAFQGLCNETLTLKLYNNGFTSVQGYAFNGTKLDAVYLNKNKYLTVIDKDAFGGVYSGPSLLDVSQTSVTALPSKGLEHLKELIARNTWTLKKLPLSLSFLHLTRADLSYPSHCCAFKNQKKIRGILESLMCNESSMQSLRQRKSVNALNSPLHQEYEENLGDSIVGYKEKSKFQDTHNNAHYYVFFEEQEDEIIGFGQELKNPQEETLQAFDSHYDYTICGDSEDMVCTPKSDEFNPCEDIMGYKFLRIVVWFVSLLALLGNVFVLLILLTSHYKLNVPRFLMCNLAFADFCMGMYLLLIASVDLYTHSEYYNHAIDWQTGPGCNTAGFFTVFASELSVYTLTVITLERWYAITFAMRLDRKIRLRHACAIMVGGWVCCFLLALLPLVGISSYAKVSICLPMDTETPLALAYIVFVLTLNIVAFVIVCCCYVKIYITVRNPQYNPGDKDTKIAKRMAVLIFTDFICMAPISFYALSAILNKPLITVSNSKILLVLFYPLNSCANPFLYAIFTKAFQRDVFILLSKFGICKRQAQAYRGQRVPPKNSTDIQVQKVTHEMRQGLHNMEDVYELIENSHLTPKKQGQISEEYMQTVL
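HEK 293 cells stably expressing TSHR and a modified CNG channel, with CNG-only parental cells as counterscreen, were preloaded 60 min at room temperature with membrane potential dye containing 100 uM RO 20-1724. Compound exposure was 30 min, and depolarization was read as fluorescence at 590 nm.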
Active calls of the source: *; [ ] = remark or other dose.

What do the screens show for `Cc1ccccc1NC(=O)CCN1CCN(Cc2ccccc2)CC1`?
AID923: 0.9%; TSHR ag: inconclusive

Results for C[C@H](O/N=C1/[C@H]2O[C@@H]2[C@@H](O)[C@H]2[C@H]1CCn1c(=O)n(-c3ccccc3)c(=O)n12)c1cn([C@H]2COC[C@H]2O)nn1 ?
AID923: -0.5%[11.5 µM]; TSHR ag: 9%[11.4 µM]

Results for Nc1nc(C(=O)N2CCOCC2)nn1S(=O)(=O)c1ccc(Cl)cc1 ?
AID923: 1.9%; A647 autofl: 7.6e-09; A488 autofl: inactive; Resorufin autofl: inactive; TSHR ag: 5%

Results for O=C(CCCNS(=O)(=O)c1cccs1)N1CCc2ccccc2C1 ?
AID923: 0.8%; A647 autofl: 6.2e-09; A488 autofl: inactive; Resorufin autofl: inactive; TSHR ag: 1%[11.4 µM]

How did CC(C)c1ccccc1 do in these assays?
AID923: 1.0%; TSHR ag: 0%

How did CCSc1nnc(-c2cccs2)o1 do in these assays?
AID923: -0.7%; A647 autofl: 2.6e-08; A488 autofl: inactive; Resorufin autofl: inactive; TSHR ag: -1%

How did COc1ccc(C2(CNC(=O)c3ccc(Br)o3)CCOCC2)cc1 do in these assays?
AID923: -0.5%; A647 autofl: 1e-09; A488 autofl: inactive; Resorufin autofl: inactive; TSHR ag: 15%

Results for Cc1cccc2nc(Cn3c(=O)n(CCC(=O)NCc4ccco4)c(=O)c4ccccc43)cc(=O)n12 ?
AID923: -0.2%; A647 autofl: 1.7e-08; A488 autofl: inactive; Resorufin autofl: inactive; TSHR ag: 3%

What do the screens show for `CCOc1ccc(NC(=O)CSc2nnc(COc3c(C)cccc3C)o2)cc1`?
AID923: 1.2%; TSHR ag: 0%

Results for CCN(CC)S(=O)(=O)c1cccc(-c2nnc(SCCOc3ccccc3C)o2)c1 ?
AID923: -0.7%; A647 autofl: 1.9e-09; A488 autofl: inactive; Resorufin autofl: inactive; TSHR ag: inconclusive

How did CCCc1cc(=O)oc2cc(C)c3c(C)coc3c12 do in these assays?
AID923: 1.6%; TSHR ag: 27%

What do the screens show for `CCSc1nsc(SCC)c1C(N)=O`?
AID923: 0.7%; TSHR ag: 0%

Results for Cc1cccc2cc(CN(CC3CCCO3)C(=O)c3cnccn3)c(=O)[nH]c12 (stereo not drawn) ?
AID923: 0.2%; A647 autofl: 4.7e-08; A488 autofl: inactive; Resorufin autofl: inactive; TSHR ag: 0%

Results for O=C(CC1(O)C(=O)N(CCc2ccccc2)c2ccccc21)c1ccco1 (stereo not drawn) ?
AID923: 9.8%; TSHR ag: 23%

How did COC(=O)c1c(-n2cnnn2)sc(C)c1C do in these assays?
A647 autofl: 5e-09; A488 autofl: inactive; Resorufin autofl: inactive

Results for COc1ncc2nc(CCc3ccccc3)c(=O)n(-c3ccccc3)c2n1 ?
AID923: 2.2%; A647 autofl: 1e-09; A488 autofl: inactive; Resorufin autofl: inactive; TSHR ag: inconclusive

What do the screens show for `O=C(Nc1nc2c(s1)CCc1ccccc1-2)c1ccco1`?
AID923: -1.1%; A647 autofl: 4.6e-09; A488 autofl: inactive; Resorufin autofl: inactive; TSHR ag: 2%

How did CS(=O)(=O)N(CC(=O)NCc1ccc2c(c1)OCO2)c1ccccc1 do in these assays?
AID923: 0.5%; A647 autofl: 1e-09; A488 autofl: inactive; Resorufin autofl: inactive; TSHR ag: 0%

What do the screens show for `CCC(C(=O)OCCN(CC)CC)c1ccccc1` (stereo not drawn)?
A647 autofl: 1e-09; A488 autofl: inactive; Resorufin autofl: inactive

Results for Cc1cccc(CN2CCN(CC(=O)O)C2=O)c1 ?
AID923: 0.0%; A647 autofl: 1.5e-09; A488 autofl: inactive; Resorufin autofl: inactive; TSHR ag: -4%

How did CN(C)c1ccc(C2CC(=O)NC3=C2C(=O)CC(C)(C)C3)cc1 (stereo not drawn) do in these assays?
AID923: 2.9%; TSHR ag: -1%[11.4 µM]

Results for COc1cccc(CNC(=O)C2CCCN(S(C)(=O)=O)C2)c1 (stereo not drawn) ?
AID923: -0.6%; A647 autofl: 1.8e-08; A488 autofl: inactive; Resorufin autofl: inactive; TSHR ag: 22%

Results for COc1ccc(C(=N/O)/C(=N/O)c2ccc(OC)cc2)cc1 ?
AID923: -1.6%; TSHR ag: 10%

How did COc1cccc(C(c2sc3ncnn3c2O)N2CCc3ccccc3C2)c1 (stereo not drawn) do in these assays?
AID923: -5.2%; TSHR ag: inconclusive

What do the screens show for `CCOC(=O)c1cnc(C(C)(C)C)[nH]c1=O`?
AID923: -1.6%; A647 autofl: 3.7e-09; A488 autofl: inactive; Resorufin autofl: inactive; TSHR ag: -6%

What do the screens show for `Cc1cnc(CNc2nc(-c3ccc(C(=O)N(C)C)cc3)nc3ccccc23)cn1`?
AID923: 0.1%; A647 autofl: 1e-09; A488 autofl: inactive; Resorufin autofl: inactive; TSHR ag: 28%

Results for CC1(C)CC(=O)C=C(N2CCNCC2)C1 ?
AID923: 0.4%; A647 autofl: 5.9e-08; A488 autofl: inactive; Resorufin autofl: inactive; TSHR ag: 4%

Results for CCCCSCCCNC(=O)Nc1cccc(OC)c1 ?
AID923: -1.8%; A647 autofl: 3.1e-09; A488 autofl: inactive; Resorufin autofl: inactive; TSHR ag: 1%

How did COC(=O)C/C=C\[C@@H](C)[C@@H](/C=N\OC[C@@H]1O[C@H](c2ccccc2)C=C[C@@H]1Oc1ccc(OC)cc1)NS(=O)(=O)c1ccc(C)cc1 do in these assays?
AID923: 0.1%[11.5 µM]; TSHR ag: -3%[11.4 µM]

What do the screens show for `COC(=O)c1ccccc1NC(=O)CSc1nnc(-c2cccc(NC(C)=O)c2)n1C`?
AID923: 0.0%; TSHR ag: 6%

Results for CCOC(=O)C1CCCN(C(=O)c2cnn3c(C(F)F)cc(-c4ccc(C)cc4)nc23)C1 (stereo not drawn) ?
AID923: 9.8%; A647 autofl: 3.9e-09; A488 autofl: inactive; Resorufin autofl: inactive; TSHR ag: inconclusive

Results for CC1=C(C(=O)Nc2ccccn2)C(c2ccc(Br)cc2)n2ncnc2N1 (stereo not drawn) ?
AID923: -1.8%; A647 autofl: 1e-09; A488 autofl: inactive; Resorufin autofl: inactive; TSHR ag: 3%

How did N#Cc1c2n(c3c(=O)[nH]cnc13)CCCC2 do in these assays?
AID923: 1.7%; TSHR ag: -5%

What do the screens show for `O=C(O)c1ccc2nc(C(F)(F)F)[nH]c2c1`?
AID923: -0.3%; A647 autofl: 1e-09; A488 autofl: inactive; Resorufin autofl: inactive; TSHR ag: 2%

Results for Cn1nnnc1SCC(=O)Nc1ccccc1-c1ccccc1 ?
AID923: 0.4%; TSHR ag: -5%

Results for CCOc1cc(C#N)c(NC(=O)c2ccnn2C)cc1OCC ?
AID923: 0.9%; TSHR ag: -1%

Results for C=CC(=O)OCC(CO)(COC(=O)C=C)COC(=O)C=C ?
AID923: -0.2%; TSHR ag: -2%

Results for COc1ccc(S(=O)(=O)N2CCCC(C(=O)NCc3ccccn3)C2)cc1Cl (stereo not drawn) ?
AID923: -0.1%; A647 autofl: 3.8e-08; A488 autofl: inactive; Resorufin autofl: inactive; TSHR ag: 10%

How did O=c1c[n+](CC[n+]2cc(=O)o[nH]2)[nH]o1 do in these assays?
AID923: 2.3%[11.5 µM]; A647 autofl: 2.5e-08; A488 autofl: inactive; Resorufin autofl: inactive; TSHR ag: 0%[11.4 µM]

How did Cn1c(=O)n2n(c1=O)[C@H]1[C@H](O)[C@H]3O[C@@H]3/C(=N/OC[C@@H](O)COCc3ccco3)[C@@H]1CC2 do in these assays?
AID923: -0.3%[11.5 µM]; TSHR ag: inconclusive

Results for COc1cccc(Cn2c(=O)c(C)nc3cnc(Nc4cccc(OC)c4)nc32)c1 ?
AID923: inconclusive; A647 autofl: 1e-09; A488 autofl: inactive; Resorufin autofl: inactive; TSHR ag: inconclusive

Results for COc1ccc(C(=O)NCCc2nnc(SCC(=O)Nc3ccccc3)n2C)cc1 ?
AID923: -0.1%; A647 autofl: 1e-09; A488 autofl: inactive; Resorufin autofl: inactive; TSHR ag: -2%

Results for CC(CC(=O)O)CC1=NS(=O)(=O)c2ccccc2N1 (stereo not drawn) ?
AID923: -0.1%; A647 autofl: 1e-09; A488 autofl: inactive; Resorufin autofl: inactive; TSHR ag: 2%

What do the screens show for `CCCCn1c(N)c(N(CCOC)C(=O)CSc2nc3ccc(C)cc3[nH]2)c(=O)[nH]c1=O`?
AID923: 0.6%; A647 autofl: 1e-09; A488 autofl: inactive; Resorufin autofl: inactive; TSHR ag: -4%

What do the screens show for `O=C(O)[C@@H]1[C@@H]2C[C@H]([C@@H](Br)[C@H]2N2C(=O)CCC2=O)[C@@H]1C(=O)O`?
AID923: -1.5%[11.5 µM]; A647 autofl: 6.4e-09; A488 autofl: inactive; Resorufin autofl: inactive; TSHR ag: -4%[11.4 µM]

How did CCOC(=O)C(CC)Sc1nc2c(c(=O)[nH]c(=O)n2C)n1CCc1ccccc1 (stereo not drawn) do in these assays?
AID923: -1.0%; A647 autofl: 8e-09; A488 autofl: inactive; Resorufin autofl: inactive; TSHR ag: 20%

Results for O=[n+]1cc(-c2cc3ccccc3o2)n([O-])c2c1CCCC2 ?
AID923: 11%; A647 autofl: 2.8e-08; A488 autofl: inactive; Resorufin autofl: inactive; TSHR ag: 10%

Results for O=C(CCSc1nnnn1-c1ccccc1)N1CCOCC1 ?
AID923: 0.8%; A647 autofl: 9.4e-09; A488 autofl: inactive; Resorufin autofl: inactive; TSHR ag: -7%

What do the screens show for `O=C(CC1Oc2ccccc2NC1=O)NCCCN1CCN(C2CCCCC2)CC1` (stereo not drawn)?
AID923: -0.8%; TSHR ag: -33%[inhibitor]

Results for CCCn1c(SCC(=O)c2ccc3c(c2)OCCO3)nnc1C(C)C ?
AID923: -1.1%; A647 autofl: 1e-09; A488 autofl: inactive; Resorufin autofl: inactive; TSHR ag: 6%

What do the screens show for `CC(=O)N1CCc2cc(S(=O)(=O)CCC(=O)Nc3cccc(F)c3)ccc21`?
AID923: 0.2%; A647 autofl: 1e-09; A488 autofl: inactive; Resorufin autofl: inactive; TSHR ag: 0%

Results for CCOC(=O)CC(NC(=O)c1ccco1)c1ccccc1Cl (stereo not drawn) ?
AID923: -1.4%; A647 autofl: 4.4e-09; A488 autofl: inactive; Resorufin autofl: inactive; TSHR ag: 7%[11.4 µM]

How did N#CC(C(N)=O)=C1CCC2(CC1)OCCCCO2 do in these assays?
AID923: -3.2%; A647 autofl: 1.5e-08; A488 autofl: inactive; Resorufin autofl: inactive; TSHR ag: -1%

What do the screens show for `CCC(=O)Nc1ccc(NC(=O)Cc2ccccc2)cn1`?
AID923: 2.5%; A647 autofl: 5.2e-08; A488 autofl: inactive; Resorufin autofl: inactive; TSHR ag: -4%

5 structures from above, sorted by length of the SMILES, lowest first.
Results for O=C(CCSc1nnnn1-c1ccccc1)N1CCOCC1 ?
AID923: 0.8%; A647 autofl: 9.4e-09; A488 autofl: inactive; Resorufin autofl: inactive; TSHR ag: -7%

Results for CCOC(=O)CC(NC(=O)c1ccco1)c1ccccc1Cl (stereo not drawn) ?
AID923: -1.4%; A647 autofl: 4.4e-09; A488 autofl: inactive; Resorufin autofl: inactive; TSHR ag: 7%[11.4 µM]

Results for CCCn1c(SCC(=O)c2ccc3c(c2)OCCO3)nnc1C(C)C ?
AID923: -1.1%; A647 autofl: 1e-09; A488 autofl: inactive; Resorufin autofl: inactive; TSHR ag: 6%

Results for O=[n+]1cc(-c2cc3ccccc3o2)n([O-])c2c1CCCC2 ?
AID923: 11%; A647 autofl: 2.8e-08; A488 autofl: inactive; Resorufin autofl: inactive; TSHR ag: 10%

What do the screens show for `O=C(CC1Oc2ccccc2NC1=O)NCCCN1CCN(C2CCCCC2)CC1` (stereo not drawn)?
AID923: -0.8%; TSHR ag: -33%[inhibitor]

The list is partial; the hit share may differ from the screen's.
